Compound activity from PubChem.
Mtb growth: Confirmatory growth inhibition assay against Mycobacterium tuberculosis H37Rv, potency (AID 1949) | inhibition, % at 10 µg/mL; hits with a dose series show IC50 in µg/mL | 100,000 compounds, 1.6% hits | most inactive calls were filed without a number and no value below 0 was filed;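 active = confirmed in a dose series; inconclusive = about 50% or more but not retested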;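 note: bacteria grown 7 days with compound before Alamar blue readout; 0% = untreated bacteria and 100% = reference antibiotic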
Starred values were filed as active, the others as inactive; i = inactive; ? = inconclusive. The list is partial; rates above refer to the full screens.

| SMILES | Mtb growth |
| --- | --- |
| Cc1cc(C)cc(C(=O)Nc2ccc(N3CCN(Cc4ccccc4Cl)CC3)cc2)c1 | i |
| COc1cccc(OCC(=O)N2CCCCC2)c1 | 1% |
| CCOc1cc(C)c(S(=O)(=O)NCCN2CCOCC2)cc1C | i |
| COC(=O)Cc1c(C)c2cc(Cl)c(OCc3ccc(Cl)c(Cl)c3)cc2oc1=O | i |
| O=C(Nc1cc([N+](=O)[O-])ccc1N1CCOCC1)c1cccs1 | i |
| COc1ccc(C(=O)Oc2ccc3c(oc(=O)c4ccccc43)c2C)cc1 | i |
| O=C(C1CCCCC1)N1CCc2ccccc21 | i |
| Cc1cc(Cl)c(OCCN2C(=O)NC(C)(C)C2=O)c(Br)c1 | 1% |
| O=c1/c(=C/c2ccc(Cl)cc2)sc2nnc(-c3ccccc3Cl)n12 | i |
| CCC1(C)CC(=O)N(c2ccccc2)C1=O (stereo not drawn) | i |
| CCOc1cc(C(=O)O)c(Br)cc1OCC(=O)NCc1ccccc1 | i |
| CCC(=O)Nc1ccc2nc(SCC(=O)N3CCN(c4ccccc4)CC3)sc2c1 | 13% |
| COc1ccc(S(=O)(=O)N2CCC(C(=O)Nc3cccc(C(C)=O)c3)CC2)cc1C | i |
| NCCSC1CC(=O)N(c2ccccc2)C1=O (stereo not drawn) | 1% |
| Clc1ccc(-c2cn3c4ccccc4n(CCN4CCOCC4)c3n2)cc1 | 5% |
| Cc1ccc(S(=O)(=O)c2ccc(Cl)cc2)cc1 | 1% |
| Cc1c(Cl)cccc1NC(=O)c1ccc(OC(C)C(=O)OC2CCCCC2)cc1 (stereo not drawn) | <0.1µg/mL* |
| Cc1cc(=O)oc2cc(NC(=S)NN3CCN(C)CC3)ccc12 | 2% |
| COc1ccc(N(CC(=O)Nc2cc([N+](=O)[O-])ccc2C)S(C)(=O)=O)cc1OC | i |
| O=C(CSc1ncnc2sc(-c3ccccc3)cc12)N1CCCC1 | i |
| O=C(Nc1cccc(C(F)(F)F)c1)C1CCN(S(=O)(=O)c2ccccc2)CC1 | 1% |
| COc1cc(NC(=O)c2ccc(Cl)cc2)c(Cl)cc1N | i |
| CC(=O)OC(COc1ccc(Br)cc1)Cn1cnc2ccccc21 (stereo not drawn) | 13% |
| C=CCn1c(CNC(=O)c2ccccc2)nnc1SCC(=O)c1ccc(Br)cc1 | i |
| O=C(NCCc1ccncc1)c1ccccc1F | i |
| Cc1ccc(SCC(=O)Nc2cccc(C)c2C)cc1 | 1% |
| O=C(Nc1ccc2nc(SCc3ccccc3)sc2c1)c1ccc([N+](=O)[O-])cc1 | i |
| COC(=O)c1cc(NC(=O)c2ccccc2SC)ccc1Cl | i |
| OCCOCCNc1ncnc2sc3c(c12)CCCC3 | i |
| COc1ccc(OCC(=O)N2CCN(S(=O)(=O)c3ccc(OC)cc3)CC2)cc1 | i |
| COc1ccc(-c2nnc(NC(=O)CSc3ccc(Cl)cc3)s2)cc1OC | i |
| COc1ccccc1C(=O)Nc1ccc(-c2ccc(NC(=O)c3ccccc3OC)c(C)c2)cc1C | 5% |
| COc1ccc(C(=O)N2CCC(C(=O)Nc3ccc(Cl)c(C(F)(F)F)c3)CC2)cc1 | 38% |
| O=C1OCCC1Sc1nc2sc3c(c2c(=O)[nH]1)CCC3 (stereo not drawn) | i |
| COc1cc(CNc2ccc(CNc3ncn[nH]3)cc2)ccc1OCc1ccccc1 | 3% |
| O=S(=O)(Nc1ccc(Oc2ccc(NS(=O)(=O)c3cccs3)cc2)cc1)c1cccs1 | i |
| CCOC(=O)c1c(-c2ccc(Br)cc2)csc1NC(=O)c1cnccn1 | i |
| CCOc1ccc(S(=O)(=O)n2ccnc2C)cc1C | i |
| N#Cc1c(NC(=O)C23CC4CC(CC(C4)C2)C3)oc(-c2ccccc2)c1-c1ccccc1 | i |
| CCCOc1ccc(NC(=O)CC2C(=O)N(c3ccc(F)cc3)C(=S)N2Cc2cccs2)cc1 (stereo not drawn) | i |
| Cc1nn(Cc2cccc(C(=O)Nc3ccc(S(=O)(=O)N4CCCCC4)cc3)c2)c(C)c1Cl | 4% |
| CCOC(=O)C1CCN(c2ncnc3c2cnn3-c2ccccc2)CC1 | 40% |
| O=S(=O)(c1cccc(-c2nnc(-c3cccnc3)o2)c1)N1CCCCC1 | i |
| O=C(CSc1nc2ccccc2[nH]1)N1c2ccccc2CCc2ccccc21 | i |
| NC(=O)c1c(NC(=O)c2ccc(F)cc2)sc2c1CCCCCC2 | i |

Sorted by length of the SMILES (smallest number first): part of the list above.
| SMILES | Mtb growth |
| --- | --- |
| NCCSC1CC(=O)N(c2ccccc2)C1=O (stereo not drawn) | 1% |
| CCOc1ccc(S(=O)(=O)n2ccnc2C)cc1C | i |
| Clc1ccc(-c2cn3c4ccccc4n(CCN4CCOCC4)c3n2)cc1 | 5% |
| O=c1/c(=C/c2ccc(Cl)cc2)sc2nnc(-c3ccccc3Cl)n12 | i |

The list goes on:
| SMILES | Mtb growth |
| --- | --- |
| Cc1cccc(Nc2ncnc(N)n2)c1 | 2% |
| Cc1sc2ncnc(SCC(=O)N3CCCC3)c2c1-c1ccccc1 | i |
| CCOC(=O)c1ccc(NC(=O)CC2Sc3ncnn3C2=O)cc1 (stereo not drawn) | i |
| COc1ccc(C(=O)Nc2ccccc2C(=O)NCc2ccco2)cc1 | i |
| Cc1ccc(NC(=O)CSCc2c(Cl)ccc(Cl)c2Cl)cc1 | i |
| Cc1ccc(OC(=O)COc2ccc(Cl)cc2)cc1 | i |
| O=C(c1ccncc1)N1CCN(C(=O)c2ccco2)CC1 | i |
| CN(C)S(=O)(=O)c1ccc2[nH]cc(CCN)c2c1 | i |
| O=C(Cc1cccnc1)Nc1c2c(nc3c1CCC3)CCCC2 | i |
| CCOc1ccc(C(=O)Nc2ccc(N3CCN(S(C)(=O)=O)CC3)cc2)cc1[N+](=O)[O-] | 3% |
| NC(=O)C1CCN(C2CC(=O)N(c3ccc(I)cc3)C2=O)CC1 (stereo not drawn) | i |
| CCOc1ccc(NC(=O)c2c(NC(=O)CNCCN3CCOCC3)sc3c2CCC3)cc1 | 1.3µg/mL* |
| O=C(NS(=O)(=O)c1ccccc1)c1ccccc1Cl | i |
| COc1ccc(S(=O)(=O)NCCSC(C)(C)C)cc1I | i |
| Cc1ccccc1OC(=O)COc1ccc(Cl)cc1Cl | i |
| CC1CN=C(NCCc2ccccc2)S1 (stereo not drawn) | 15% |
| O=C(Oc1ccccc1)c1cn(-c2ccccc2)nc1-c1cc2ccccc2oc1=O | 2% |
| CCCCc1ccc(NC(=O)C23CCC(C)(C(=O)O2)C3(C)C)cc1 (stereo not drawn) | 4% |
| CCc1ccc(NC(=O)CSc2nnc(CNC(=O)c3ccccc3)n2C)cc1 | i |
| CC(=O)c1c(O)cc(C)n(Cc2ccccc2)c1=O | i |
| COc1ccc(/C=C(\NC(=O)c2ccccc2)C(=O)NCc2ccncc2)cc1 | i |
| CN(c1ccc(C(=O)Nc2ccc(F)c(Cl)c2)cc1)S(C)(=O)=O | i |
| COc1ccc(NC(=S)N2CCN(c3ncccn3)CC2)cc1 | i |
| COc1ccc(NC(=S)Nc2ccc(CC(=O)O)cc2)cc1OC | i |
| Cc1n[nH]c(C)c1C(=O)CC1(O)C(=O)N(C)c2ccccc21 (stereo not drawn) | i |
| Cn1c(=O)c2c(nc(SCC(=O)NC(C)(C)C)n2C)n(C)c1=O | i |
| Cc1cc(C)nc(SCC(=O)Nc2ncc3c(n2)CC(C)(C)CC3=O)n1 | i |
| COc1ccc(-c2cc3ccccc3oc2=O)cc1NC(=O)c1ccc2c(c1)OCCO2 | i |
| N#Cc1ccccc1COc1ccc2ccccc2c1C=O | 8% |
| O=C(C1CCCN(C(=S)NC2CC2)C1)N1CCCC1 (stereo not drawn) | i |
| Fc1ccc(NC(=S)Nc2ccc(Cl)cn2)c(F)c1 | 1% |
| CS(=O)(=O)N(CC(=O)N1CCN(c2cccc(Cl)c2)CC1)c1ccccc1 | i |
| O=C(c1ccc(C23CC4CC(CC(C4)C2)C3)o1)N1CCOCC1 | 4% |
| CCCn1nnc(NC(=O)COc2cc(C)ccc2C(C)C)n1 | 2% |
| C=CC[C@H]1CC=C[C@H](CC=C)N1C(=O)c1ccccc1[N+](=O)[O-] | 2% |
| CC(C)(C)c1ccc(C2/C(=C(\O)c3ccc(F)cc3)C(=O)C(=O)N2c2nncs2)cc1 (stereo not drawn) | i |
| O=C(COc1ccc([N+](=O)[O-])cc1)Nc1ccccc1C(=O)Nc1ccc(C(=O)O)cc1 | i |
| COc1ccc(NC(=S)Nc2cccc(NC(C)=O)c2)c(OC)c1 | i |
| S=c1[nH]nc(Cc2cccs2)n1-c1ccccc1 | i |
| CCOC(=O)c1c(C2COc3ccccc3O2)csc1NC(C)=O (stereo not drawn) | i |
| CCOc1ccc(NC(=O)CSCC(=O)Nc2ccccc2C)cc1 | 5% |
| CCOC(=O)C(=O)Nc1ccc(S(=O)(=O)N(C)C)cc1 | i |
| O=C1C2C3c4ccccc4C(c4ccccc43)C2C(=O)N1C1CC2CCC1C2 (stereo not drawn) | i |
| Cc1cccc(C(C)C)c1NC(=O)CN(c1ccccc1Cl)S(C)(=O)=O | i |
| CCc1cc2c(=O)c(-c3nc4ccccc4n3C)coc2c(CN2CCCCC2)c1O | i |

Fetched one by one from above, 2 records:
| SMILES | Mtb growth |
| --- | --- |
| S=c1[nH]nc(Cc2cccs2)n1-c1ccccc1 | i |
| Cc1cccc(C(C)C)c1NC(=O)CN(c1ccccc1Cl)S(C)(=O)=O | i |

The list continues.
| SMILES | Mtb growth |
| --- | --- |
| NC(=O)c1ccc(-n2c(CCC(=O)O)ccc2-c2cccs2)cc1 | i |
| O=C(CCCCc1cccs1)Nc1ccc(C(F)(F)F)cc1 | ? |
| O=C1CCCC2=C1C(c1ccccc1)Nc1ccc(C(=O)c3ccccc3)cc1N2 (stereo not drawn) | 1% |
| CN(CCCC(=O)O)c1nc(-c2ccc(F)cc2)cs1 | 5% |
| O=C(CSc1nnc2sc3ccccc3n12)N1CCCC1 | i |
| COc1cc(C(=O)NC2(C(F)(F)F)C(=O)N(CC3CCCO3)C3=C2C(=O)CC(C)(C)C3)cc(OC)c1OC (stereo not drawn) | i |
| Cc1cc(C)nc(NC2=NCC(=O)N2c2ccc3c(c2)OCCO3)n1 | i |
| CCOc1ccc(C(=O)NC23CC4CC(CC(C4)C2)C3)cc1[N+](=O)[O-] | i |
| C=CCn1c(SCC(=O)Nc2ccccc2OCC)nc2sc3c(c2c1=O)CCCC3 | i |
| O=C(Nc1ccc(S(=O)(=O)N2CCCC2)cc1)c1cccs1 | i |
| COc1ccc(C(=O)Nc2ccc(S(=O)(=O)N3CCCC3)cc2)cc1I | i |
| Cc1ccccc1SCCNC(=O)c1ccccc1Br | 4% |
| CS(=O)(=O)N1CCC(C(=O)NC2CCCCCC2)CC1 | i |
| CCCOc1ccc(NC(=O)C2CCCNC2=O)cc1 (stereo not drawn) | 1% |
| O=C(CSc1nnc2sc3ccccc3n12)N1c2ccccc2Sc2ccccc21 | i |
| O=C(NCCN1CCOCC1)c1cc(-c2ccc(Cl)c(Cl)c2)nc2ccccc12 | 29% |
| Cc1ccc(S(=O)(=O)N(C)c2cc(S(=O)(=O)Nc3ccccc3)c(C)cc2C)cc1 | 1% |
| COc1ccc(CCNc2ncnc3c2cnn3-c2ccc(Cl)cc2)cc1OC | ? |
| Cc1cc(C)c2cccc(NC(=O)C3CC3)c2n1 | 2% |
| COc1ccccc1OCc1ccc(C(=O)Nc2ccc(C)c(C)c2)o1 | i |
| Nc1nnc(SCc2c(Cl)cccc2[N+](=O)[O-])s1 | i |
| CS(=O)(=O)N(CC(=O)NC1CCCC1)c1cccc(Cl)c1 | i |
| COC(=O)C(C)NC(=O)c1ccc(S(=O)(=O)N2CCOCC2)cc1 (stereo not drawn) | i |
| Cn1c(COc2cccc3cccnc23)nnc1SCC(=O)c1ccc(Cl)cc1 | i |
| CC(C)(C)C(=O)NC(=S)NCc1ccccc1 | 9% |
| CC(C)(C)SCCNC(=O)c1ccc(-c2ccccc2)cc1 | i |
| CC(=O)Nc1ccc(NC(=O)c2cnccn2)cc1 | i |
| Cc1nc2cc(C(=O)O)ccc2n1CCO | i |
| Cc1ccc(Sc2c(C)nn(C(=O)C3CC3)c2C)cc1 | i |
| CC(C)NS(=O)(=O)c1ccc(CCC(=O)N2CCCC2)cc1 | i |

Reprinted from the part before: three entries, then new ones.
| SMILES | Mtb growth |
| --- | --- |
| Cc1nc2cc(C(=O)O)ccc2n1CCO | i |
| Cc1ccc(Sc2c(C)nn(C(=O)C3CC3)c2C)cc1 | i |
| CC(C)NS(=O)(=O)c1ccc(CCC(=O)N2CCCC2)cc1 | i |
| Cc1ccc(C(=O)Nc2nccs2)cc1S(=O)(=O)N1CCCCCC1 | i |
| COc1cc(/C=C/c2[nH]c(=O)[nH]c(=O)c2[N+](=O)[O-])ccc1OCCC(C)C | i |
| CCN(CC)S(=O)(=O)c1ccc(C(=O)Nc2ccc(Cc3ccncc3)cc2)cc1 | i |
| COC(=O)Nc1ccc(C)cc1Br | i |
| COc1ccc(-c2csc(NC(=S)NC(=O)c3cc(Cl)ccc3OC)n2)cc1 | i |
| Cn1c(=O)n(C)c2cc(/C=C(\C#N)C(N)=S)ccc21 | i |
| O=C(NCCc1ccccc1)c1ccccc1NC(=O)C1COc2ccccc2O1 (stereo not drawn) | i |
| CCCc1nc2ccccc2n1CC(O)COc1ccc(C(=O)O)cc1 (stereo not drawn) | i |
| CC(C)(C)c1ccc(-c2nc(N3CCCC3)c3ccccc3n2)cc1 | i |
| O=C(CN1C(=O)c2ccccc2S1(=O)=O)NC(Nc1ccc(I)cc1)C(Cl)(Cl)Cl (stereo not drawn) | i |
| Cc1ccc2c(c1)C1CN(C)CCC1N2 (stereo not drawn) | i |
| COc1cc(CNC2C3CC4CC(C3)CC2C4)cc(Br)c1OCc1cccs1 (stereo not drawn) | ? |
| S=C(NCC1CCCO1)Nc1ccc2c(c1)OCCO2 (stereo not drawn) | i |
| CCn1c(SCC(=O)Nc2ccc(Br)cc2)nnc1C1CC1 | i |
